Sa growth inh – inhibitors of Staphylococcus aureus growth at 42 °C; relative growth, % (concentration not given with the values); 170,000 compounds, 0.53% hits; S. aureus RN4220 growth, OD600, 20 h; active compounds read low;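 active means growth at 42 °C up to 50% and 20 or more points under that at 30 °C, or under 10% at both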;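 further: 300 nL library stock went into each well; scaled to the means of positive and negative controls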
GIV Gai3 FP – inhibitors of GIV GBA-motif binding to rat Galpha-i3; P08753; Galpha-i3/FITC-GIV peptide fluorescence polarization, 90 min; active compounds read low; scaled: aluminum fluoride 0%, vehicle 100%; percent of control (FP), % (concentration not given with the values); 210,000 compounds, 0.42% hits; AID 1224905;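 active means replicate mean at 85% of control or lower, very high polarization wells dropped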;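 further: wells of about 15 µL received 100 nL stock; the first replicate is given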
Target sequence (P08753 whole entry, looked up): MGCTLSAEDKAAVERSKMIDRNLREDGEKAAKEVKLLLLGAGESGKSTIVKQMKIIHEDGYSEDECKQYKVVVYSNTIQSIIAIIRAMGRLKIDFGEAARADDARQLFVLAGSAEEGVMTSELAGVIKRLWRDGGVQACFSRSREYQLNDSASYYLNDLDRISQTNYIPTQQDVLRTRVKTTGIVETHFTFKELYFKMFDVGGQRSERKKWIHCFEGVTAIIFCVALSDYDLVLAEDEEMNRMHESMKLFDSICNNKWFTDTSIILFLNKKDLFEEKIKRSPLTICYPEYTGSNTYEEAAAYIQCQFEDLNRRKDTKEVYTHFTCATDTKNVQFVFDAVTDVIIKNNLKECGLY
HCMV UL50-53 inh – disrupts HCMV UL50-UL53 complex binding; HTRF UL50-UL53 interaction, normalized percent inhibition; inhibition, % (concentration not given with the values); 190,000 compounds, 0.15% hits; AID 1918969;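 active means both replicates at 50% or more, plus weaker picks with an unusually low signal ratio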;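 further: stock transfer was 100 nL into about 20 µL; 0% = negative control wells and 100% = wells with untagged competitor protein; inactives centre near -12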
Sa growth inh second temp – recorded beside Sa growth inh, whose call it bears; relative growth, %; measured here: growth at 30 °C;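 optical density after 20 h as mean of two plates; 100% = untreated growth and lower means inhibition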
* marks the source's active call; other numbers are inactive results; . = no result given; & = joins results of further samples.

1: COCc1c(C(=O)OCCCCN2C(=O)c3ccccc3C2=O)oc2ccccc12
2: CC(C)NC(=O)C1CCN(c2ccc(Cl)cc2)C1=O (stereo unspecified)
3: COc1ccc(CNC(=O)Nc2cn(CC(C)C)c(=O)c3ccccc23)c(OC)c1
4: COc1ccc(-c2nn(-c3ccccc3)cc2C2NC(=O)NC(C)=C2C(=O)OC(C)C)cc1 (stereo unspecified)
5: CCOC(=O)c1cc(CN2CCOCC2)c(C)o1
6: CC1CC(C)CN(C(=O)Nc2ccc3c(c2)N(Cc2ccccc2)C(=O)c2ccccc2S3)C1 (stereo unspecified)

assay / compound,1,2,3,4,5,6
Sa growth inh,105,.,97,.,106,.
Sa growth inh second temp,90,.,93,.,88,.
GIV Gai3 FP,.,101,105&97,113&106,.,104
HCMV UL50-53 inh,-13,-18,33&4,-23,-6,-6

7: CC(C)CCNC(=O)c1ccc2c(c1)NC(=O)C(C(C)C)N2 (stereo unspecified)
8: CC(C)c1oc2cc(O)ccc2c(=O)c1-c1nc2ccccc2n1C
9: O/N=C1/CCCCC1Cn1ccnc1 (stereo unspecified)
10: CCc1ccc(NC(=O)CSC2=Nc3ccccc3C3=NC(CC(=O)NCc4ccc5c(c4)OCO5)C(=O)N23)cc1 (stereo unspecified)
11: Cc1ccc(-c2ccc(=O)n(CCC(=O)NCCN3C(C)CCCC3C)n2)cc1 (stereo unspecified)
12: Nc1cc(-c2ccccc2)c2ccccc2n1

assay / compound,7,8,9,10,11,12
Sa growth inh,96,112,102,81,101,70
Sa growth inh second temp,86,89,80,91,82,25
GIV Gai3 FP,108,.,104,107,105,.
HCMV UL50-53 inh,-23,5,33,.,.,-12

13: COC(=O)c1ccc(C(=O)OC)c(NC(=O)c2c(-c3ccccc3)c(-c3ccccc3)n[nH]c2=O)c1
14: COc1ccccc1N1CCN(C(=O)CSc2nc3nc[nH]c3c(=O)[nH]2)CC1
15: FC(F)(F)c1cc(-c2cccs2)nc(=S)[nH]1
16: Cc1ccc(N2CC(c3nc(-c4ccc(Cl)cc4)no3)CC2=O)cc1F (stereo unspecified)
17: Cc1cc(C)nc(Nc2ccccc2O)n1
18: N#C/C(=C1\CCCCCN1)c1nc2ccccc2[nH]1

assay / compound,13,14,15,16,17,18
Sa growth inh,.,.,76,98,97,96
Sa growth inh second temp,.,.,79,88,88,84
GIV Gai3 FP,103,111,102,98,104,.
HCMV UL50-53 inh,-9,-9,-37,.,-10,-42

2 compounds picked at random from those above:
13: COC(=O)c1ccc(C(=O)OC)c(NC(=O)c2c(-c3ccccc3)c(-c3ccccc3)n[nH]c2=O)c1
2: CC(C)NC(=O)C1CCN(c2ccc(Cl)cc2)C1=O (stereo unspecified)

assay / compound,13,2
Sa growth inh,.,.
Sa growth inh second temp,.,.
GIV Gai3 FP,103,101
HCMV UL50-53 inh,-9,-18

The list goes on.
19: COc1cccc(C(=O)Nc2ccccc2-c2nc3ccccc3[nH]2)c1
20: CCn1c(CNc2nc(-c3ccccc3)cs2)nnc1SCC(=O)c1ccc(OC)cc1
21: CC(=O)Nc1ccc(/C=C(\C#N)C(=O)NC2CCCCC2)cc1
22: O=C(c1ccccc1)N(Cc1nnc(-c2ccc(Cl)cc2)o1)C1CC1
23: CCc1nnc(NC(=O)[C@@H](NC(=O)c2cccc(S(=O)(=O)N(CC)CC)c2)C(C)C)s1
24: COCCN(CCC(=O)N1CCNCC1)C(=O)c1ccc(Cl)cc1

assay / compound,19,20,21,22,23,24
Sa growth inh,.,97,98,92,94,.
Sa growth inh second temp,.,59,94,94,88,.
GIV Gai3 FP,105,106,.,.,.,99
HCMV UL50-53 inh,-20,12,-31,-23,-23,-10

25: CCn1cc(C(=O)O)c(=O)c2cc(S(=O)(=O)N(C)C)ccc21
26: O=C(NC(=S)Nc1ccccc1O)C1CCCCC1
27: Cc1ccc(C(=O)Nc2ccc(-c3nc4ccccc4s3)cc2C)cc1C
28: CCN(c1ccc(C)cc1)S(=O)(=O)c1nnc(NC(=O)C2CCCCC2)s1
29: CCC(=O)Nc1ccc(-c2nc3ccc(OC(=O)CC)cc3c(=O)o2)cc1
30: CC1(C)CC(=O)C2=C(C1)OC1=C(C(=O)CC(C)(C)C1)C2c1ccc(Br)cc1

assay / compound,25,26,27,28,29,30
Sa growth inh,96,102,104,111,88,.
Sa growth inh second temp,84,91,89,91,75,.
GIV Gai3 FP,103,.,107,106,102,104
HCMV UL50-53 inh,.,14,-8,2,-35,-8

31: CCCCN(CC)S(=O)(=O)c1ccc2c(c1)N(C(C)=O)CCCS2
32: CCCn1c(=O)c2ccc(C(=O)NC(C)C)cc2n2c(SCc3ccccc3F)nnc12
33: CC1CCC(NC(=O)C2(C)Cn3c(cc4occc43)C(=O)N2CCCN2CCOCC2)CC1 (stereo unspecified)
34: CCOC(=O)CC(NC(=O)CCc1c(C)nc2c(-c3ccccc3)c(C)nn2c1C)c1ccc(OC(C)C)cc1 (stereo unspecified)
35: COC(=O)C1C2C=CC3(CN(C(C)C)C(=O)C13)O2 (stereo unspecified)
36: N#Cc1ccc(OCC(=O)NCC2(N3CCCCC3)CCCCC2)cc1

assay / compound,31,32,33,34,35,36
Sa growth inh,.,.,.,101,83,90
Sa growth inh second temp,.,.,.,87,86,83
GIV Gai3 FP,97,107,102,103,100,.
HCMV UL50-53 inh,-21,-31,-14,-32,-1,4

Copied from the list.
Under Sa growth inh second temp, entry 34 reads 87
Under HCMV UL50-53 inh, entry 35 reads -1

Going on with the list:
37: Cc1cc(C(=O)Cn2c(CO)nc3ccccc32)c(C)n1C
38: COc1ccc(C)cc1NC(=O)N1CCC(CN2CCOCC2)CC1
39: N#C/C(=C(/O)CN1CCN(S(=O)(=O)c2ccc(Cl)cc2)CC1)c1nc2ccccc2[nH]1
40: CCN(CC)c1ccc(-c2nc(-c3ccco3)no2)cc1[N+](=O)[O-]
41: COc1cc([N+](=O)[O-])cc2c1NC(c1ccc(Br)cc1)C1CC=CC21 (stereo unspecified)
42: Cc1cc(-c2csc(CC#N)n2)c(C)n1C1CC1

assay / compound,37,38,39,40,41,42
Sa growth inh,99,83,78,94,.,86
Sa growth inh second temp,98,95,74,85,.,73
GIV Gai3 FP,.,101,.,100,110,.
HCMV UL50-53 inh,-2,.,-42,-24,2,-44

More records.
The line under a structure holds: Sa growth inh | Sa growth inh second temp | GIV Gai3 FP | HCMV UL50-53 inh
[43] Cc1cc(C)cc(OC(C)C(=O)Nc2onc3c2CCCC3)c1 (stereo unspecified)
 : . | . | 104 | -31
[44] Cc1occc1C(=O)Nc1sccc1C(N)=O
 : 110 | 80 | 111 | -3
[45] CC(C)Cn1c(=O)c2sccc2n2c(CCCC(=O)Nc3ccc(Cl)cc3)nnc12
 : 134 | 84 | 104 | .
[46] COc1ccc(Cl)cc1NC(=O)CC(C)(C)CC(=O)O
 : 105 | 57 | 102 | -12
[47] O=C(c1cnn(-c2ccccc2)n1)N1CCCC1c1nc2ccccc2s1 (stereo unspecified)
 : 95 | 45 | . | -9
[48] O=C1C2SCCN2C(=S)N1c1cccc(C(F)(F)F)c1 (stereo unspecified)
 : 46* | 71* | 104 | -40
[49] Cc1cc(=S)nc(-c2ccccn2)[nH]1
 : 50 | 24 | 98 | -33
[50] c1ccc(C(c2ccccc2)N2CCN(c3nn4cnnc4c4ccccc34)CC2)cc1
 : . | . | 113 | -6
[51] COc1cccc(NC2=CC(=O)CC(C)(C)C2)c1
 : 89 | 93 | . | 7
[52] O=C(NCCc1ccc(Cl)cc1)c1cnc2sc(N3CCOCC3)nn2c1=O
 : 100 | 89 | 99 | .

An excerpt of these results, field by field:
(27) Cc1ccc(C(=O)Nc2ccc(-c3nc4ccccc4s3)cc2C)cc1C
  Sa growth inh = 104 | Sa growth inh second temp = 89 | GIV Gai3 FP = 107 | HCMV UL50-53 inh = -8

(26) O=C(NC(=S)Nc1ccccc1O)C1CCCCC1
  Sa growth inh = 102 | Sa growth inh second temp = 91 | GIV Gai3 FP = . | HCMV UL50-53 inh = 14

(22) O=C(c1ccccc1)N(Cc1nnc(-c2ccc(Cl)cc2)o1)C1CC1
  Sa growth inh = 92 | Sa growth inh second temp = 94 | GIV Gai3 FP = . | HCMV UL50-53 inh = -23

(more compounds)
The line under a structure holds: Sa growth inh | Sa growth inh second temp | GIV Gai3 FP | HCMV UL50-53 inh
[53] COc1ccc(-c2noc(CN(C)C(C)=O)n2)cc1OC
 : 120 | 88 | 101 | -12
[54] Cc1ccc(S(=O)(=O)Nc2ccccc2N=Cc2ccc[nH]2)cc1
 : 78 | 97 | . | 17
[55] Cc1cc(C)c(C#N)c(SCC(=O)C(C)(C)C)n1
 : 97 | 88 | . | 0
[56] Cc1cc(C)cc(N2CCn3c2nc2c3c(=O)n(CCCc3ccccc3)c(=O)n2C)c1
 : 116 | 91 | 99 | .
[57] O=S(=O)(NCC1CCCCC1)c1ccc2c(c1)OCCO2
 : 102 | 88 | . | -22
[58] Cc1cc(Sc2ccccc2NC(=O)Nc2ccccc2Br)n2ncnc2n1
 : . | . | 98 | -25
[59] Cc1cc(C)n(-c2nnc3n2N=C(c2ccccc2O)CS3)n1
 : . | . | 100 | -17
[60] COCCOC(=O)C1=C(C)NC2=C(C(=O)CC(c3ccccc3)C2)C1c1cc2c(cc1[N+](=O)[O-])OCO2 (stereo unspecified)
 : . | . | 99 | -71
[61] c1ccc(COc2ccc(CCC3OCCO3)cc2)cc1
 : 149 | 79 | 99 | -3
[62] Cc1ccc(-c2nn3cnnc3c3ccccc23)cc1C
 : 69 | 86 | . | -3
[63] Cc1cc(C)n(C(=O)CNC(=O)c2ccc(Br)cc2)n1
 : 98 | 92 | 99 | -18
[64] CC(C)CN(CC(C)C)S(=O)(=O)c1ccc(CCN2C(=O)c3cccnc3C2=O)cc1
 : 100 | 91 | 94 | .
[65] CCCCC(=O)Nc1ccc(OCc2cc(=O)n3ccc(C)cc3n2)cc1
 : 89 | 87 | 98 | .
[66] Cc1ccc(C2=NS(=O)(=O)N(C)C(C(=O)Nc3cccc(O)c3)=C2)cc1
 : . | . | 97 | -40
[67] O=C(Cn1cnc2ccccc2c1=O)c1c[nH]c2ccccc12
 : 108 | 92 | . | -22
[68] Nc1c(C(=O)O)sc(C(F)(F)F)c1-c1ccccc1
 : 93 | 90 | 106 | -4
[69] O=C(Nc1cccc(C(F)(F)F)c1)c1ccc2ccccc2c1
 : 96 | 78 | 97 | .
[70] CCCNC(=O)c1ccccc1OC(C)=O
 : 94 | 87 | . | -7
[71] CCn1c(=O)c2sccc2n2c(CCC(=O)NCc3ccc(Cl)cc3)nnc12
 : 112 | 102 | 103 | -5
[72] CN1C2CCC1CC(NC(=O)Cc1ccccc1F)C2 (stereo unspecified)
 : 97 | 92 | 108 | -13

By substructure: those above containing a COOH group.
The line under a structure holds: Sa growth inh | Sa growth inh second temp | GIV Gai3 FP | HCMV UL50-53 inh
[25] CCn1cc(C(=O)O)c(=O)c2cc(S(=O)(=O)N(C)C)ccc21
 : 96 | 84 | 103 | .
[46] COc1ccc(Cl)cc1NC(=O)CC(C)(C)CC(=O)O
 : 105 | 57 | 102 | -12
[68] Nc1c(C(=O)O)sc(C(F)(F)F)c1-c1ccccc1
 : 93 | 90 | 106 | -4

The listing continues.
The line under a structure holds: Sa growth inh | Sa growth inh second temp | GIV Gai3 FP | HCMV UL50-53 inh
[73] Cc1ccccc1NC(=O)C(NS(=O)(=O)c1ccc2c(c1)c(=O)n(C)c(=O)n2C)c1ccccc1 (stereo unspecified)
 : 98 | 79 | 101 | .
[74] Cc1ccc(CSc2nc3ccccc3c(=O)n2-c2ccc(C(=O)N3CCOCC3)cc2)cc1
 : 97 | 92 | 105 | .
[75] CC(C)(C)c1ccc(CNc2ccccn2)cc1
 : 117 | 107 | 106 | 2
[76] CC(C)C(C)NC(=O)CSc1nnc(COc2ccccc2Cl)o1 (stereo unspecified)
 : 100 | 90 | . | -9
[77] Cc1ccc(N=C2NN=C(c3ccccc3)C(C(=O)Nc3ccc4c(c3)OCO4)S2)cc1 (stereo unspecified)
 : 87 | 68 | . | 12
[78] COc1ccc(CNC(=O)c2cc(C)nc3c2c(C)nn3-c2ccccc2)cc1
 : . | . | 102 | -27
[79] Cc1nc2ccccc2c(=O)n1/N=C1\C(=O)N(C)c2ccccc21
 : 106 | 96 | 101 | -29
[80] COc1cc(-c2noc(-c3cc4cccc(C)c4oc3=O)n2)cc(OC)c1OC
 : 94 | 86 | 101 | .
[81] Cc1ccc(-c2cc(C(=O)OCCn3c(C)csc3=O)c3ccccc3n2)o1
 : 85 | 87 | . | -29
[82] COc1ccc(-c2cc(C(=O)Nc3cc(C)cc(C)c3)nn2C2CCS(=O)(=O)C2)cc1 (stereo unspecified)
 : . | . | 109 | 9
[83] COCCNC(=O)Cn1cc(S(=O)(=O)N2CCN(c3ccccc3F)CC2)c2ccccc2c1=O
 : 84 | 93 | 106 | 2
[84] COCCCNC(=O)CCCn1c(=O)c2cccn2c2ccccc21
 : 99 | 84 | 95 | -12
[85] CCOc1ccc(NCC(=O)Nc2ccc(F)cc2)cc1
 : 79 | 62 | . | -8
[86] COc1cc2c(=O)n(Cc3ccc(C(=O)NCc4ccccc4)cc3)c(=O)n(CC(N)=O)c2cc1OC
 : . | . | 106 | -7
[87] O=C(COC(=O)Cc1cccc2ccccc12)Nc1ccc2[nH]c(=O)[nH]c2c1
 : 90 | 80 | . | -3

High-throughput results deposited in PubChem by ICCB-Longwood Screening Facility, Harvard Medical School.

Random draw from the library, and some 0.8% of all compounds hit somewhere here.
